Source: PubChem (Fisher Drug Discovery Resource Center)
NPYLR7 ag: agonists of mosquito NPYLR7 receptor, primary screen, cell-based, Aedes aegypti, calcium fluorescence, mosquito biting behavior. Aedes aegypti neuropeptide Y-like receptor 7 (NPYLR7). HEK293T NPYLR7/Galpha15, GCaMP6s calcium fluorescence. activation, % at 10 µM. 0.15% of 270,000 active. AID 1259423, 2018; in the data active means activation above about 40%;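 further: 0% = vehicle and 100% = reference agonist at the receptor; some compounds past the cut are filed as inactive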
NPYLR7 ag max-min: second read-out of NPYLR7 ag, no call of its own (marks repeat the call); activation, %; measured here: Max-Min RFU normalised activation; some inactives read as strong as hits;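 span of the calcium signal over five minutes; 0% = vehicle and 100% = native peptide agonist; compound fluorescence can raise it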
* marks the source's active call; other numbers are inactive results; & = joins results of further samples. Only part of the results is shown. The share of hits here may be higher or lower than overall.

SMILES	NPYLR7 ag	NPYLR7 ag max-min
CNCc1n[nH]c(=O)n1Cc1cccs1	7	3
O=C(c1ccccc1N1CCC(NS(=O)(=O)c2ccccc2)CC1)N1CCN(C2CCCCCC2)CC1	21	10
COc1cc(C(=O)NNC(=O)c2cc(C)no2)ccc1OC(C)C	0	-2
COc1cc2c(cc1OC)C1C(=O)c3c(cc4c(c3O)C=CC(C)(C)O4)OC1CO2 (stereo not drawn)	-9	-16
O=C(C1CC1)N(CCN1CCCC1)Cc1csc(COc2ccccc2)n1	7	16
CCCc1nc(Cn2nc(C)nc2C2CCCCC2)no1	4	2
CCCN(Cc1csc(COc2cccc(Cl)c2)n1)C(=O)c1ccc2c(c1)OCO2	20	35
O=C(Cc1cccnc1)N1CCC(N2CCCC(C(=O)N3CCCC3)C2)CC1 (stereo not drawn)	26	19
COc1ccc2nc(N(Cc3ccco3)C(=O)c3cc(C)n(C)n3)sc2c1	8	3
CC(C)(C)c1ccc(C(=O)Nc2nnc(SCc3ccc(C#N)cc3)s2)cc1	27	30
CSc1ncc(CN2CCC(CCC(=O)Nc3ccccc3Cl)CC2)cn1	6	0
COc1ccc(CCN2C(=O)O[C@@H]3CN(c4cnccn4)C[C@@H]32)cc1	-6	-9
CCOC(=O)c1ccc(N2C(=O)c3cc(N(C)C)ccc3P2(=S)N(C)c2ccccc2)cc1 (stereo not drawn)	-2	-5
Cc1nn(C(=O)c2cccnc2)c(C)c1Sc1ccc(Br)cc1	3	9
CC(C)n1nccc1C(=O)Nc1nnc(-c2ccn(C)n2)o1	-6	-12
O=C(NC1CCN(c2ccccc2C(=O)NCc2ccco2)CC1)OCc1ccccc1	-3	4
CCN1C(=O)NC(c2ccc([N+](=O)[O-])cc2)C(C(=O)OCCOc2ccccc2)=C1C (stereo not drawn)	-2	-3
CCONC(=O)c1csc(CSc2nnc(-c3ccccc3Cl)n2-c2ccc(C)cc2)n1	23	16
COc1ccccc1/C=C1/SC(=S)N(C)C1=O	9	5
CC(C)O[C@H]1CN(Cc2ccc(C(=O)Nc3ccccc3)cc2)C[C@@H]1O	0	-3
Cc1cccc(C(=O)NC(C(=O)NC2CC2)C2CCNCC2)c1 (stereo not drawn)	19	19
CC(C)c1cccc(-c2nc3c(NCCN4CCOCC4)nccc3[nH]2)c1	-6	-10
CC(CCn1cccn1)NC(=O)c1ccc(OC2CCN(S(=O)(=O)N(C)C)CC2)cc1 (stereo not drawn)	9	3
C#CC1(OCC(O)CNC(C)(C)CC(C)(C)C)CCCCC1 (stereo not drawn)	1	11
CN(C)CCNC(=O)[C@@]1(OCc2cccc(C(F)(F)F)c2)CC(OCc2ccccc2C#N)[C@@H]2OC(C)(C)O[C@@H]2C1 (stereo partly drawn)	6	14
Cc1c(-c2ccccc2)[nH]c2c(CNC(=O)CCn3cncn3)cc(Cl)cc12	13	6
O=C(CCc1ccccc1)NNC(=O)c1ccccc1I	1	3
COc1ccc(CN(C)CC2CCCN(CCc3ccc(F)cc3)C2)c(OC)c1OC (stereo not drawn)	0	-1
c1cc2c(cc1Oc1nnnn1[C@H]1CO[C@H]3[C@@H]1OC[C@@H]3NCC1CCCCC1)OCO2	-8	-12
COc1ccc2cc(C(=O)C3CCCN(C(=O)Cc4c(C)noc4C)C3)ccc2c1 (stereo not drawn)	2	-2
Cc1ncsc1C(=O)NCc1ccc(N2CCC(C)CC2)nc1	2	0
Cc1ccc2nc(CN(C)C3CCNCC3)[nH]c2c1	8	8
CC1(C)O[C@@H]2[C@H](O1)[C@@H](C(=O)NC1CC1)O[C@H]2n1cnc2c(N3CCc4ccccc43)ncnc21	-7	-8
CCOC(=O)c1cc(C(C)CC(C)(C)C)sc1NC(=O)C(c1ccccc1)c1ccccc1 (stereo not drawn)	4	4
CN(C(=O)c1ccc(NCc2ccccc2)cc1)C1CCOCC1	-5	-6
CC1(C)C[C@H]2C[C@@H](O)[C@H](N3CCN(c4ccccc4F)CC3)[C@]2(O)CO1	0	8
O=C(NCc1cccc(C(F)(F)F)c1)c1cc2n(n1)CCN(Cc1cccc(F)c1)C2=O	11	9
COc1cccc(N2CC(C(=O)Nc3cc(C)nn3-c3nc(C)c(C)c(=O)[nH]3)CC2=O)c1 (stereo not drawn)	6	3
CC(C)N1CCC(C)(C(=O)Nc2ccc(Cl)c(Cl)c2)C1 (stereo not drawn)	2	0
O=C1NCC(C(=O)NCc2cccc(COCc3ccccc3)c2)N1 (stereo not drawn)	7	5

Already shown: an excerpt of the list.
SMILES	NPYLR7 ag	NPYLR7 ag max-min
CCN1C(=O)NC(c2ccc([N+](=O)[O-])cc2)C(C(=O)OCCOc2ccccc2)=C1C (stereo not drawn)	-2	-3
CCONC(=O)c1csc(CSc2nnc(-c3ccccc3Cl)n2-c2ccc(C)cc2)n1	23	16
COc1ccccc1/C=C1/SC(=S)N(C)C1=O	9	5
CC(C)O[C@H]1CN(Cc2ccc(C(=O)Nc3ccccc3)cc2)C[C@@H]1O	0	-3
Cc1cccc(C(=O)NC(C(=O)NC2CC2)C2CCNCC2)c1 (stereo not drawn)	19	19
CC(C)c1cccc(-c2nc3c(NCCN4CCOCC4)nccc3[nH]2)c1	-6	-10
CC(CCn1cccn1)NC(=O)c1ccc(OC2CCN(S(=O)(=O)N(C)C)CC2)cc1 (stereo not drawn)	9	3
C#CC1(OCC(O)CNC(C)(C)CC(C)(C)C)CCCCC1 (stereo not drawn)	1	11
CN(C)CCNC(=O)[C@@]1(OCc2cccc(C(F)(F)F)c2)CC(OCc2ccccc2C#N)[C@@H]2OC(C)(C)O[C@@H]2C1 (stereo partly drawn)	6	14
Cc1c(-c2ccccc2)[nH]c2c(CNC(=O)CCn3cncn3)cc(Cl)cc12	13	6
O=C(CCc1ccccc1)NNC(=O)c1ccccc1I	1	3
COc1ccc(CN(C)CC2CCCN(CCc3ccc(F)cc3)C2)c(OC)c1OC (stereo not drawn)	0	-1
c1cc2c(cc1Oc1nnnn1[C@H]1CO[C@H]3[C@@H]1OC[C@@H]3NCC1CCCCC1)OCO2	-8	-12
COc1ccc2cc(C(=O)C3CCCN(C(=O)Cc4c(C)noc4C)C3)ccc2c1 (stereo not drawn)	2	-2
Cc1ncsc1C(=O)NCc1ccc(N2CCC(C)CC2)nc1	2	0
Cc1ccc2nc(CN(C)C3CCNCC3)[nH]c2c1	8	8

The list goes on:
SMILES	NPYLR7 ag	NPYLR7 ag max-min
COc1ccc(CN2CCC(NC(=O)CCOc3ccc(C)cc3C)C2=O)cc1 (stereo not drawn)	-2	25
COc1ccc(Br)cc1S(=O)(=O)N1CCN(Cc2cc(=O)c(OCc3ccc(SC)cc3)co2)CC1	22	7
CC(C)CCNC(=O)CCN(Cc1ccco1)c1nc(Cc2ccc(F)cc2)ns1	11	12
Cc1ccc(CN2CCC2(C)C(=O)Nc2cccc(NS(C)(=O)=O)c2)cc1 (stereo not drawn)	8	5
O=S(=O)(NC(C1CC1)C1CC1)c1cccc(Br)c1	8	7
COc1ccccc1N1CCN(c2ccc(NC(=O)c3ccc(-c4ccccc4)cc3)cc2C(=O)NCCN2CCOCC2)CC1	16	22
CS(=O)(=O)c1ccc(-c2cc(NCc3ccccn3)nc3[nH]ccc23)cc1	4	1
COc1ccc(CCOc2nc(-c3ccccc3F)n(-c3cccc(NCC(O)COCC(C)C)c3)n2)cc1 (stereo not drawn)	-1	6
COC(C)(C)C(=O)N1CCN(c2nncc3ccccc23)CC1	-2	434
COC(=O)CCCC(=O)Nc1cccc(-c2cccc(-c3ccc4c(c3)NC(=O)CO4)n2)c1	20	6
CC(c1ccc(-c2cnc3ccccc3n2)cc1)N(C)C (stereo not drawn)	0	0
C(=NN1CCN(C(c2ccccc2)c2ccccc2)CC1)c1cccnc1	1	0
COc1ccccc1/C=C/C1=NC(=C\c2ccc(OC)c(OC)c2)/C(=O)O1	-3	-8
COCC(C)NCCC1CCN(C2CCCC2)CC1 (stereo not drawn)	7	4
COc1cc(-c2cc(C(=O)O)c3[nH]c(-c4ccccc4)nc3n2)cc(OC)c1OC	-2	-4
CC1CCc2c(sc3nc(CN4CC(C)OC(C)C4)[nH]c(=O)c23)C1 (stereo not drawn)	-5	-9
CC(=O)c1cccc(NC(=O)/C(=C/c2cccs2)n2nnnc2-c2ccccc2)c1	2	2
CCC(NC(=O)CCN=C1NS(=O)(=O)c2ccccc21)c1ccc(C)cc1 (stereo not drawn)	3	6
C=CCC(=O)NC1CC(C)(C)Cc2nc(N3CCC(O)CC3)ncc21 (stereo not drawn)	0	-4
CC(C)=C1C2C=CC1C1C(=O)N(c3ccc4c(c3)OCO4)C(=O)C21 (stereo not drawn)	3	3
Cc1nn(CC(=O)OCC(=O)c2cc(C)n(Cc3ccco3)c2C)c(C)c1[N+](=O)[O-]	-1	-1
CCCCCn1c(SCCc2ccccc2)nc2c1c(=O)[nH]c(=O)n2C	2	16
CC(=O)N1N=C(c2ccccc2NS(C)(=O)=O)CC1c1cccs1 (stereo not drawn)	1	-6
CC(C)CCCC1CN(C(=O)CCC(=O)N(C)C)CCO1 (stereo not drawn)	3	1
CC(C)C(=O)Nc1ccnn1Cc1ccc(Cl)cc1	-3	-4
Cc1cccc(-n2nc(CC(C)C)c(C(=O)N3CCOCC3)c2C)c1	25	28
COc1ccc(S(=O)(=O)N(C)CCc2ccccc2)cc1N1CCN(C(=O)C(F)(F)C(F)F)CC1	-8	-6
CC(Sc1nnnn1C1CCCC1)C(=O)N1CCNC1=O (stereo not drawn)	3	4
Cc1ccc(CCCC(=O)N2CCC(=O)Nc3cccnc32)s1	6	5
O=C(c1cccc(CSc2nc(-c3ccccc3)cc(N3CCN(Cc4ccc5c(c4)OCO5)CC3)n2)c1)N1CCCC1	2	0
CN(CCc1ccccn1)C(=O)CCC1CCCN(C(=O)C2=CC(=O)CC(C)(C)O2)C1 (stereo not drawn)	15	3
O=C(NC12CC3CC(CC(C3)C1)C2)NC12CC3CC(CC(C3)C1)C2	-3	-3
COCCCNC(=O)c1cc(-c2ccccc2Cl)nc2cc(-c3ccccc3)nn12	9	19
CC(C)(C)c1cc(NC(=O)c2cccc(C(F)(F)F)c2)n(-c2ccc(C#N)cc2)n1	20	8
C=CCC(NC(C)=O)C(=O)N1CCc2c(cnn2-c2ccc(C(C)(C)C)cc2)C1 (stereo not drawn)	-1	10
O=C1c2ccccc2C(=O)N1c1ccccc1S(=O)C(F)(F)C(F)(F)C(F)(F)F (stereo not drawn)	7	6
COCc1cc(C)nc(OCC(=O)N/N=C\c2ccco2)c1C#N	-14	-23
CC(O)CN(Cc1ccc2c(c1)OCO2)Cc1ccccc1F (stereo not drawn)	-2	8
O=C(CN1CCN(C(=O)C2CC2)CC1)Nc1ccc(Cl)cc1	1	0
NC(=O)c1ccc(CSCc2cccc(F)c2)cc1	-1	-1
CCN(C(C)=O)c1nc(/C=C2/CCc3cc(OC(C)(C)C(=O)O)ccc3C2=O)cs1	0	-4
C=CCN1CCN(c2nc3c(c(=O)[nH]c(=O)n3C)n2Cc2ccc(Cl)cc2)CC1	0	7
CC(C)(C)C(=O)N1CC(=O)N(Cc2ccco2)CC(O)C1 (stereo not drawn)	5	15
COCCN1Cc2sccc2N([C@@H]2CCC[C@H]2O)CCC1=O	24	30
O=c1[nH]c(-c2ccc(S(=O)(=O)NC3CC3)cc2)nc2ccc(F)cc12	-5	-7
COCCN(Cc1nc2scc(-c3ccccc3F)c2c(=O)[nH]1)CC(O)COCC(C)C (stereo not drawn)	10	15
CN(CC(=O)Nc1cccc(F)c1)C(=O)C1=Cc2ccccc2OC1	7	4
CCN1CCN(C(=O)NC(c2ncc(C)s2)C2CC2)CC1 (stereo not drawn)	5	9
COC(=O)CCCC(=O)N1[C@@H]2CC[C@H]1CNC(=O)C2	10	6
OCC(NCc1ccccc1)C1CC1 (stereo not drawn)	-3	672
O=C(Nc1ccc(Oc2ccccc2)nc1)C1CCN(C(=O)[C@@H]2C[C@@H]3C=C[C@H]2C3)CC1	1&0	-4&-4
COCCN1CC(C(=O)NCc2csc(-c3ccccc3)n2)CCC1=O (stereo not drawn)	-1	-3
CCOCCCN(CC(=O)N(Cc1cccn1Cc1ccccc1Cl)CC(C)C)S(=O)(=O)c1ccc(Cl)cc1	15	8
NC(=O)C(NC(=O)C1Cc2ccccc2S1)c1ccccc1F (stereo not drawn)	-2	-1
Cc1ccc(C(=O)N2C(C(=O)NCc3cccnc3)COC23CCN(C(=O)c2cccs2)CC3)cc1 (stereo not drawn)	2	13
COc1ccc(C(O)=C2C(=O)C(=O)N(c3ccccn3)C2c2ccc(OC)c(OC)c2)cc1 (stereo not drawn)	9	12
C/C(=N\N1CCOCC1)c1c(C)nc(-c2ccco2)[nH]c1=O	7	5
CCOC(=O)C1=C(C)N=c2s/c(=C/c3ccc(OC(C)=O)cc3)c(=O)n2C1c1ccccc1F (stereo not drawn)	-9	-11
CC(C)Oc1ccc2ccccc2c1C=O	3	2
COc1cc(/C=C(\C#N)c2nn(-c3ccccc3)c(N)c2C#N)cc(Br)c1OCC#N	-2	-5

The listing continues.
SMILES	NPYLR7 ag	NPYLR7 ag max-min
Cc1cc(C(=O)Cn2cnc3ccccc3c2=O)c(C)n1-c1ccc(OC(F)F)cc1	9	9
CC(=O)N1N=C(c2ccccc2Cl)OC1C(=O)NCCc1c(C)[nH]c2ccccc12 (stereo not drawn)	16	14
CN(Cc1ccccc1)C(=O)[C@@H]1Cc2nc[nH]c2CN1C(=O)CC(C)(C)CC(=O)O	-8	-17
N#Cc1c(SCC(=O)NCc2ccccc2)sc2c(=O)[nH]c(=O)[nH]c12	7	5
Cc1ccccc1CN1c2ccccc2C[C@H]1C(N)=O	7	5
COc1cc(NC(=O)c2ccc(OC)c([N+](=O)[O-])c2)c(OC)cc1Cl	-1	-3
CCc1cc(=O)[nH]c(-n2nc(C)cc2NC(=O)c2cccc([N+](=O)[O-])c2)n1	-7	-5
Cc1cccn2c(=O)c(C=Nc3ccc(Cl)cc3)c(NCc3ccccc3)nc12	0	6
Cc1cccc(NC(=O)Cn2c(=O)[nH]c(=O)c3ccccc32)n1	2	1
